# StopGo reporter = lowers the luciferase signal of an FMDV 2A StopGo reporter. Potency, µM (series often up to 57.9 µM), inactives show at the top dose signal change, negative = less light. human cells with a luciferase reporter of 2A StopGo recoding; control for the full effect not named in the record. actives 1.2% (n = 410,000); active = well fitted falling curve with a large enough effect; inconclusive = small, poorly fitted or top-dose-only effect; inactive = no such curve, though single readings can be large or run the other way; tested in HEK293T cells; note: % is set by controls: 0 for no effect and ±100 for the full control effect; nearly all actives have a fitted effect of over 45% in size; luciferase light after 4 h
# RE007 growth inh = less growth of the S. pombe RE007 Vpr strain. S. pombe RE007 Vpr strain, BacTiter-Glo ATP luminescence, 24 h; control for the full effect not named in the record. Potency, µM (top dose mostly 92.2 µM), inactives show at the highest dose activity change, negative = less growth. AID 651644. actives 0.21% (n = 360,000); active = well fitted falling curve with a large enough effect; inconclusive = small, poorly fitted or top-dose-only effect; inactive = no such curve, though single readings can be large or run the other way;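 note: % is set by controls: 0 for no effect and ±100 for the full control effect; nearly all actives have a fitted effect of over 50% in size; the assay follows cell death caused by Vpr and the record does not say whether a fall means rescue or toxicity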
#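 Fission yeast RE007 carrying one integrated HIV-1 vpr copy, seeded at OD 0.01 in PMG+AL medium with 23 nL pinned compound. Grown 24 h at 30 degrees; viability read by BacTiter-Glo luminescence after 5 min.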
# Marburg entry inh = blocks Marburg virus binding to or entry into cells; Potency, µM (top dose mostly 37.8 µM), inactives show at the highest dose activity change, negative = inhibition, hits mostly inhibitors; actives 1.8% (n = 300,000); Marburg virus pseudotyped entry inhibition, cell reporter; control for the full effect not named in the record; about a third of the inactives were read at about 46 µM; active = well fitted inhibition curve with a large enough effect; inconclusive = small, poorly fitted or top-dose-only effect, or effect the other way; inactive = flat fitted curve, though single readings scatter; tested in HEK293 cells; about a fifth of its hits are not listed in these tables; note: % is set by controls: 0 for no effect and ±100 for the full control effect; luciferase read-out
# NS1 function inh = blocks influenza NS1 protein function; S. cerevisiae slowed by influenza A NS1, growth recovery by OD600; Potency, µM (titrated, usually from 46.1 µM), for inactives: at the highest dose activity, positive = more growth; actives 0.4% (n = 270,000); AID 2326; note: actives are rising curves; nearly all actives have a fitted effect of over 50% in size
#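 In this qHTS, NS1 from influenza A is expressed in budding yeast, where it slows growth. Cells are switched from glucose to 2% galactose medium (pH 6.0, -URA), treated with compound, and growth recovery is read at OD600.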
# SARS PLP yeast = blocks SARS-CoV papain-like protease in a yeast assay | S. cerevisiae expressing SARS-CoV PLpro, growth rescue; control for the full effect not named in the record | AID 485353 | Potency, µM (titrated, usually from 32.9 µM), without a hit: top-dose activity, positive = growth rescue | actives 0.19% (n = 330,000); note: 0% is about no effect; nearly all actives have a fitted effect of over 55% in size; growth read by luminescence after 48 h
# Cruzain inh noDet = cruzain (T. cruzi) inhibition without detergent; purified cruzain, Z-FR-AMC fluorescence, no detergent; Potency, µM, for the others: max response, negative = inhibition, most hits filed as inhibitors; actives 2.3% (n = 200,000); active = well fitted curve in the direction sought with a large enough effect; inconclusive = small, poorly fitted or top-dose-only effect, or another doubt; inactive = no such curve, though single readings can be large; an effect the other way counts as inactive or inconclusive;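 note: plate controls were enzyme without inhibitor for no effect and buffer without enzyme for full effect; nearly all actives have a fitted effect of over 40% in size; top concentration of the series not given in the record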
# Target sequence (P25779 123-467 limits assumed): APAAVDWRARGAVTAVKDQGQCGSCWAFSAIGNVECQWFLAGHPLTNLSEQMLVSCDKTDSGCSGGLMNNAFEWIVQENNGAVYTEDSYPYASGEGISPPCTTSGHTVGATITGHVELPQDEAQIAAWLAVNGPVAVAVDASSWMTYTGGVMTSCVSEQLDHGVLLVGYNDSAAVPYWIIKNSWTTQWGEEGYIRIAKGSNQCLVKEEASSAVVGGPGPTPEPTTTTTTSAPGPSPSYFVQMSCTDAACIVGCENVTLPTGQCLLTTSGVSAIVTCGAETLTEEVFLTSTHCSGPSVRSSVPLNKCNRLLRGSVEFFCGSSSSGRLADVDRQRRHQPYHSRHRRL
#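 Detergent-free condition (0.00005% Triton X-100) in acetate buffer pH 5.5 with DTT. 1.5 nM enzyme and compound were pre-mixed 15 min, then 2 uM Z-FR-AMC substrate added; reaction progress from fluorescence change between first and third reads (60 s).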
# Cruzain inh Det = cruzain (T. cruzi) inhibition with detergent. Potency, µM, inactives show max response, negative = inhibition, usual class: inhibitors. P25779. purified cruzain, Z-FR-AMC fluorescence, 0.01% Triton. actives 0.43% (n = 200,000); active = well fitted curve in the direction sought with a large enough effect; inconclusive = small, poorly fitted or top-dose-only effect, or another doubt; inactive = no such curve, though single readings can be large; an effect the other way counts as inactive or inconclusive;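 note: plate controls were neutral wells for no effect and buffer without enzyme for full effect; nearly all actives have a fitted effect of over 40% in size; top concentration of the series not given in the record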
#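 Read-out: AMC fluorescence (360 nm excitation, 450 nm emission), four reads over 2 min, first-to-third difference used. Conditions: cruzain 1.5 nM, Z-FR-AMC 2 uM, pH 5.5 acetate, 5 mM DTT, 0.01% Triton X-100.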
# Lassa entry inh = blocks Lassa virus binding to or entry into cells | Lassa virus pseudotype entry inhibition, cell reporter; control for the full effect not named in the record | Potency, µM (doses to about 37.9 µM), for the others: at the top dose activity change, negative = inhibition, usual class: inhibitors | actives 1.2% (n = 300,000); active means well fitted inhibition curve with a large enough effect; inconclusive means small, poorly fitted or top-dose-only effect, or effect the other way; inactive means flat fitted curve, though single readings scatter; tested in HEK293 cells; note: % is set by controls: 0 for no effect and ±100 for the full control effect; nearly all actives have a fitted effect of over 50% in size; luciferase read-out
# The depositor's hits bear a star; ? = inconclusive; . = not tested or not shown; & = joins results of further samples; [ ] = dose if it differs, or a comment. Unless noted, calls come from the whole dose curve; as a rule, active means well fitted rising curve with a large enough effect; inconclusive means small, poorly fitted or top-dose-only effect; inactive means no such curve, though single readings can be large or run the other way. Potency is the fitted concentration of half-maximal effect.
# Below each SMILES: RE007 growth inh	Lassa entry inh	Cruzain inh noDet	Cruzain inh Det	NS1 function inh	StopGo reporter	Marburg entry inh	SARS PLP yeast
1) Cc1ccc(NC(=O)CSCc2n[nH]c(=O)[nH]2)c(Br)c1
→ 1%	9%	.	.	1%	2%	2%[46.1 µM]	0%
2) CCn1c2ccccc2c2cc(NC(=O)CSc3nnnn3-c3ccccc3)ccc21
→ 6%	-13%	?	3.7%	5%	3%	-20%	.
3) CC(=O)N1c2ccc(S(=O)(=O)N3CCC(C(=O)Nc4cccc(Cl)c4C)CC3)cc2CC1C (stereo unspecified)
→ .	-7%[46.1 µM]	5%	-0.8%	.	?	.	.
4) CC1=CC2=NC(=O)/C(=C\c3cn(C)c4ccccc34)C(=N)N2O1
→ 4%	3%[46.1 µM]	.	.	.	19%	-4%[46.1 µM]	-2%
5) COc1ccc(-n2nnnc2SCC(=O)NC(=O)Nc2ccc3c(c2)OCCO3)cc1
→ 33%	-2%	-14%	-2.3%	-4%	17%	?	10%
6) CCCc1cc(=O)oc2cc(C)cc(OCC(=O)NCCCN3CCOCC3)c12
→ -1%	.	.	.	0%	-6%	.	1%
7) Cc1cc(=O)oc2cc(OCCCN3C(=O)c4ccccc4C3=O)ccc12
→ 17%	4%	6%	3.0%	5%	5%	?	25%
8) CC1(C)N([O-])C(c2cccs2)=C[N+]1=O
→ -5%	7%	10%	0.7%	6%	9%	-16%	6%
9) O=S(=O)(c1ccccc1)N1CCN(CC2CC3C=CC2C3)CC1 (stereo unspecified)
→ 4%	.	.	.	2%	-6%	.	1%
10) CCN(CC)CCOc1c(C)cccc1Cl
→ 1%	21%[46.1 µM]	.	.	.	-3%	-7%[46.1 µM]	-1%
11) O=C1CN(C(=O)CSc2nnc(Nc3ccccc3)s2)c2ccccc2N1
→ 5%	1%	-2%	-5.8%	-2%	-3%	-1%	-7%
12) CC(C)CNc1nc(=S)nc(N(C)C)[nH]1
→ -6%	-1%	-6%	-3.9%	25%	-14%	-1%	-4%
13) CC12CCCCC1N(O)CN2O (stereo unspecified)
→ -14%	-16%	-1%	-1.7%	-3%	3%	12%	6%
14) COc1cc(-c2nnc(SCC(=O)N3c4ccccc4Sc4ccccc43)o2)cc(OC)c1OC
→ 13%	?	?	-3.0%	4%	-9%	?	-15%
15) CCc1nc(N2CCN(CC(=O)NCC3CCCO3)CC2)c(C#N)c2c1COC(C)(C)C2 (stereo unspecified)
→ 5%	.	.	.	-19%	-11%	.	-1%
16) C/C=C(\C)CN1CCC(Oc2cccc(C(=O)NCc3ccccn3)c2)CC1
→ -1%	?	.	.	0%	2%	-17%[46.1 µM]	2%
17) CCCCOc1ccc(C(=O)NN2CCN(C)CC2)cc1
→ 0%	-2%	3%	-0.1%	0%	-3%	?	1%
18) O=C(COc1ccc2c3c(c(=O)oc2c1)CCC3)NCCCN1CCOCC1
→ -3%	.	.	.	-6%	2%	.	1%
19) OC1C2CN3CN(C2)CC1(c1ccccc1)C3 (stereo unspecified)
→ -6%	.	.	.	-3%	-3%	.	1%
20) c1ccc(-c2nc(N3CCN(c4ccccc4)CC3)nc(-n3ccnc3)n2)cc1
→ 16%	?	?	11%	-42%	8%	?	-6%

# Looked up one by one from the list above (six):
# Below each SMILES: RE007 growth inh	Lassa entry inh	Cruzain inh noDet	Cruzain inh Det	NS1 function inh	StopGo reporter	Marburg entry inh	SARS PLP yeast
11) O=C1CN(C(=O)CSc2nnc(Nc3ccccc3)s2)c2ccccc2N1
→ 5%	1%	-2%	-5.8%	-2%	-3%	-1%	-7%
17) CCCCOc1ccc(C(=O)NN2CCN(C)CC2)cc1
→ 0%	-2%	3%	-0.1%	0%	-3%	?	1%
1) Cc1ccc(NC(=O)CSCc2n[nH]c(=O)[nH]2)c(Br)c1
→ 1%	9%	.	.	1%	2%	2%[46.1 µM]	0%
6) CCCc1cc(=O)oc2cc(C)cc(OCC(=O)NCCCN3CCOCC3)c12
→ -1%	.	.	.	0%	-6%	.	1%
13) CC12CCCCC1N(O)CN2O (stereo unspecified)
→ -14%	-16%	-1%	-1.7%	-3%	3%	12%	6%
2) CCn1c2ccccc2c2cc(NC(=O)CSc3nnnn3-c3ccccc3)ccc21
→ 6%	-13%	?	3.7%	5%	3%	-20%	.

# Additional results
# Below each SMILES: RE007 growth inh	Lassa entry inh	Cruzain inh noDet	Cruzain inh Det	NS1 function inh	StopGo reporter	Marburg entry inh	SARS PLP yeast
21) Cc1nn2c(=O)cc(COC(=O)c3ccccc3NC(=O)C(C)C)nc2s1
→ .	17%[46.1 µM]	3%	0.5%	.	?	.	.
22) Cc1cccc(C(=O)OCC(=O)Nc2sc3c(c2C#N)CCC3)c1
→ 7%	25%	25µM*	0.2%	12%	-21%	-13%	-3%
23) O=C(CN1C(=O)COc2ccccc21)NCCC1=CCCCC1
→ -2%	-14%	-6%	2.9%	-5%	.	-12%	-1%
24) Cc1sc2c(=O)n3c(nc2c1C(=O)NC1CCCCC1)CCCCC3
→ 25%	-18%	-9%	-4.5%	13%	?	?	0%
25) CCOC(=O)c1cnc2c(cnn2CC)c1NN=C(C)C
→ .	3%	?	-5.9%&-9.4%	-6%	-1%	?	.
26) O=C(Nc1cccc2ccccc12)ON=C1CCCCC1
→ -8%	-5%[46.1 µM]	.	.	.	24%	-2%[46.1 µM]	.
27) CC(=O)N/C(=C\c1ccc(C)o1)C(=O)NCc1ccccc1
→ -5%	27%	.	.	13%	4%	21%	-4%
28) Cc1ccccc1Nc1nnc(SCc2cc([N+](=O)[O-])cc3c2OCOC3)s1
→ 6%	-2%	13µM*	0.8%	0%	-24%	-15%	3%
29) CCOCCCNC(=O)c1cc(Cl)c(NC(=O)C2=C(C)OCCS2)cc1OC
→ 3%	?	.	.	-2%	-1%	6%[46.1 µM]	0%
30) Cc1cc(NC(=O)CCC(=O)N(Cc2cccs2)C(C(=O)NC2CCCC2)c2ccccc2)no1 (stereo unspecified)
→ -9%	-18%	-15%	-2.9%	-9%	?	11µM*	-1%
31) O=C1CCCN1CCCNS(=O)(=O)c1cccc(F)c1
→ -1%	.	.	.	7%	4%	10%[46.1 µM]	1%
32) Cc1cc(C)nc(N2CCCC(C(=O)NCc3ccc4c(c3)OCO4)C2)n1 (stereo unspecified)
→ -12%	7%	.	.	-6%	4%	-4%[46.1 µM]	1%
33) N/C(=N\OC(=O)COc1ccccc1)c1cccnc1
→ -10%	.	-10%	-2.1%	0%	63%[activator]	0%	2%
34) Cc1[nH]nc(N)c1-c1ccc(Cl)cc1
→ 0%	0%	.	.	.	9%	1%[46.1 µM]	-3%
35) CC(C)(C)c1ccc(NNC(=O)C2CCC2)cc1
→ 3%	-1%[46.1 µM]	.	.	-4%	-19%	?	0%
36) COC(=O)c1cnn2c(C(F)(F)F)cc(-c3ccco3)nc12
→ -23%	4%	-1%	-7.2%	-4%	-27%	18%	-2%
37) CN(C)C(=S)N=c1ssc(=S)n1Cc1cccnc1
→ -16%	-4%	.	.	.	?	?	.
38) CNc1nc(Nc2ccc([N+](=O)[O-])cc2)nc(OCC(F)(F)F)n1
→ -5%	.	.	.	?	-14%	.	1%
39) CCN(CC)CCCNC(=S)N(Cc1cccnc1)Cc1cc2cccc(C)c2[nH]c1=O
→ ?	1%	.	.	3%	-15%	0%[46.1 µM]	0%
40) COc1ccc([C@@H]2C[C@@H](c3ccccc3)Oc3cc(OC)cc(OC)c32)cc1
→ -18%	.	.	.	4%	-28%	.	-2%
41) COc1cccc(NC(=O)c2cccc(N3C(=O)C4C5C=CC(C5)C4C3=O)c2)c1 (stereo unspecified)
→ 3%	.	.	.	-11%	-11%	.	1%
42) Cc1cc(C)cc(NC(=S)N2CCCC2)c1
→ 15%	.	.	.	3%	24%	.	5%
43) COCCCN1C(=O)c2ccc(C(=O)Nc3ccc(C)cc3C)cc2C1=O
→ 1%	.	.	.	-1%	14%	.	0%
44) CCCNC(=O)C(=O)Nc1cc2c3c(c1)CCC(=O)N3CCC2
→ 6%	.	.	.	-1%	-2%	.	-2%
45) CCOc1ccccc1NC(=O)CSc1c2c(nc3ccc(Cl)cc13)CCCC2
→ .	?	-19%	-7.0%	.	?	-7%[46.1 µM]	.
46) Cc1ccccc1CN1CCN(Cc2cc3ccccc3o2)CC1CCO (stereo unspecified)
→ -13%	.	.	.	-4%	?	.	0%
47) CCCCSc1nc(C)c(CC(=O)O)c(=O)[nH]1
→ 55%	2%	1%	2.9%	5%	1%	-4%	0%
48) COc1ccccc1NC(=S)N1CCN(Cc2ccccc2)CC1
→ 2%	6%	-4%	-2.0%	-14%	-6%	24%	-7%
49) O=C(Cn1cc(C(=O)C(F)(F)F)c2ccccc21)N1CCCCCC1
→ .	-18%[46.1 µM]	-7%	-7.0%	.	50%[activator]	10%[46.1 µM]	.
50) CN(CC1CCOCC1)C(=O)CC1C(=O)NCCN1Cc1ccc(-c2ccccc2)cc1 (stereo unspecified)
→ -22%	3%	.	.	-4%	-17%	-6%[46.1 µM]	-1%
51) Cc1ccc(S(=O)(=O)c2nc(S(C)(=O)=O)sc2N2CCC(O)CC2)cc1
→ 0%	.	.	.	-4%	-4%	.	0%
52) N#C/C(=C\c1c(Cl)cccc1Cl)c1nc2ccccc2o1
→ -2%	-19%	0%	-6.9%	2%	22%	1%	-20%
53) O=[N+]([O-])c1ccc(NCCNCCOc2nonc2-c2ccccc2)c([N+](=O)[O-])c1
→ -8%	4%	.	.	.	-20%	-4%[46.1 µM]	20%
54) O=C(Nc1ccc(-n2cccc2)cc1)C1CC1
→ -13%	2%	.	.	.	28%	-9%[46.1 µM]	-5%
55) O=P(N1CCCCCC1)(N1CCCCCC1)N1CC1
→ -2%	7%	.	.	.	-11%	?	.
56) CC(C)C(C)NC(=O)COc1ncnc2ccccc12 (stereo unspecified)
→ -2%	5%	-4%	1.2%	-3%	-21%	?	1%
57) CC(NC(=O)C(=O)NN=C1CCCCCCCCCCC1)c1ccccc1 (stereo unspecified)
→ -3%	10%	14%	-4.1%	10%	47%[activator]	2%	0%

# Compound activity deposited in PubChem BioAssay by National Center for Advancing Translational Sciences (NCATS).
